Biofilm kill mix – clotrimazole potentiators killing C. albicans biofilm, primary screen, 4-compound mixtures | C. albicans biofilm persisters + clotrimazole, fluorescence viability; primary screen in compound mixtures of four per well | inhibition, % at 7.6 µM | actives 0.02% (n = 120,000) | AID 1242, 2008;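 active means inhibition above 30.3% in the primary screen of four-compound pools, then above 30% when the compound was retested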;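 further: compounds exposed to preformed 24 h biofilms for 48 h; the number belongs to the whole pool; some results filed as inactive read as strong as hits; inactives centre near 12; 0% = biofilm with clotrimazole alone and 100% = kill control; retested singly at about 60 µM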
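System: C. albicans CAF4-2 wild-type biofilms; Medium: RPMI/MOPS medium, pH 7.0; Reagent: Clotrimazole, 50 µg/mL; Times: biofilm formation 24 h, compound exposure 48 h, 37 °C; Detection: 2-h Alamar Blue fluorescence, 535/590 nm excitation/emission; Evaluation: percent inhibition of biofilm viability.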
Active calls of the source: *. A portion of the library; the hit share may differ from the screen's.

entry	Compound	Biofilm kill mix
1	O=C(Oc1ccc(C(=S)N2CCOCC2)cc1)c1ccc(Br)cc1	11
2	Cc1ccc(NC(=S)NN2CCN(C)CC2)cc1	9
3	CCC(=O)n1nc(-c2cccnc2)nc1NCc1ccccc1	17
4	O=C(CCS(=O)(=O)c1cccs1)Nc1ccc(C(=O)NC2CCN(Cc3ccccc3)CC2)cc1	20
5	CC1=NNC(=O)C1CCC(=O)N/N=C(\C)c1ccc(Cl)cc1 (configuration not stated)	8
6	Cc1cc(C)n2c(Br)c(CSc3nc4ccccc4s3)nc2n1	14
7	COc1ccc(C(C2C(=O)CC(C)(C)CC2=O)C2C(=O)CC(C)(C)CC2=O)cc1COCC(F)(F)F	2
8	CCN(CC)c1ccc2c(C)c(CO)c(=O)oc2c1	13
9	CN(C)CC1CCCCC1OC(=O)/C=C/c1ccc(Cl)cc1Cl (configuration not stated)	4
10	Oc1ccccc1C1OCC2(CO1)COC(c1ccccc1O)OC2 (configuration not stated)	20
11	Cc1cc(C)n(-c2ccc(C(=O)O)cc2[N+](=O)[O-])n1	2
12	COc1ccc(-c2cnnc(N/N=C/c3ccc(OC)c(OC)c3)n2)cc1	18

The listing continues:
entry	Compound	Biofilm kill mix
13	CCN1C(=O)S/C(=C/c2cn(C)c3ccccc23)C1=O	4
14	Cc1cccc(C(=O)NCC(=O)Nc2ccc(S(=O)(=O)Nc3nc(C)cc(C)n3)cc2)c1	14
15	O=C(NCc1ccccc1)c1ccc(S(=O)(=O)Nc2cccc(C(F)(F)F)c2)cc1	4
16	CCOC(=O)c1c(-c2ccccc2)csc1NC(=O)c1ccc(S(=O)(=O)N2CCOCC2)cc1	11
17	Cc1ccc(S(=O)(=O)Nc2ccccc2CNc2cccc(C)n2)cc1	12
18	CN(Cc1cc2ccccc2[nH]c1=O)C(=O)COc1ccccc1	24
19	CCn1cc(CN2CCN(Cc3cccc(OC)c3)C(CCO)C2)c(C)n1 (configuration not stated)	6
20	COc1ccc(NC(=O)C2=CCN(S(=O)(=O)c3ccccc3)CC2)cc1OC	5
21	O=C(COC(=O)c1cc([N+](=O)[O-])ccc1NCCO)c1ccc(Cl)cc1	12
22	COc1ccc(C(=O)N/C(=C\c2cc(OC)c(OC)cc2[N+](=O)[O-])C(=O)NCC(=O)O)cc1	2
23	CN(CCO)C1=CC(=O)CC(C)(C)C1	6
24	CC1=CC(=O)N(c2ccn(C)n2)C1=O	16

Continuation.
entry	Compound	Biofilm kill mix
25	CCOC(=O)C(=O)NNc1cccc(C)c1C	17
26	CC(/C=N/NC(=O)c1cccs1)=C\c1ccco1	11
27	Cc1ccn2c(=O)c(C(=O)O)cnc2c1	23
28	Cc1cccc(NC2=NCC(=O)N2Cc2cccs2)c1	13
29	O=C(c1sc2cc(F)ccc2c1Cl)N1CCN(c2cccc(Cl)c2)CC1	21
30	O=C(NCCc1nc2ccccc2[nH]1)/C(=C/c1ccco1)NC(=O)c1ccc(Br)o1	11
31	O=C(CCC1CCCN(Cc2cccc3c2OCO3)C1)NCc1ccc(F)c(F)c1 (configuration not stated)	7
32	COc1ccccc1C(c1c(N)n(C)c(=O)n(C)c1=O)C(C)[N+](=O)[O-] (configuration not stated)	8
33	O=C(CCCN1C(=O)c2ccccc2C1=O)NCCCn1ccnc1	15
34	O=C(CCc1nc2ccccc2s1)OCC(=O)c1ccccc1	14
35	CCN(CC)C1CCN(Cc2cn[nH]c2-c2ccc(OC)c(F)c2)C1 (configuration not stated)	7
36	CC1=NN(c2ccccc2)C(=O)C1/C=C1/NC(=S)NC1=O (configuration not stated)	3

(list continues)
entry	Compound	Biofilm kill mix
37	COc1ccc2c(CC(=O)OCC(=O)Nc3cccc(S(N)(=O)=O)c3)coc2c1	18
38	CC(C)C(C)NC(=O)COC(=O)c1cccc(C(=O)OCC(=O)NC(C)C(C)C)n1 (configuration not stated)	10
39	CCN(C(=O)c1cnc(NC(C)C)cc1C(F)(F)F)c1ccc(Cl)cc1	22
40	CC(C)NC(=O)CSc1nc(-c2cccs2)cc(-c2ccccc2)c1C#N	11
41	Cc1cc(CNCc2c(C(=O)N(C)Cc3ccccc3)nc3ccccn23)nn1C	21
42	O=C(Nc1ccc2c(c1)CCC2)c1ccc(Br)s1	11
43	CN1CCN(c2cc(C(F)(F)F)nc3ccc(F)cc23)CC1	12
44	Cc1ccc(C2C(C#N)=C(N)N(N(C)C)C3=C2C(=O)CCC3)cc1 (configuration not stated)	21
45	N#C/C(=C/c1ccc(CNS(=O)(=O)c2ccccc2)o1)C(=O)NCc1ccccc1	18
46	COc1cc(C(CCN2CCCC(C)C2)c2c(OC)cc(OC)c3c2OC(=O)CC3c2ccc(N(C)C)cc2)cc(OC)c1OC (configuration not stated)	12
47	C=C(C)COc1ccc(-c2n[nH]c(C)c2-c2ccc(OC)c(OC)c2)c(O)c1	20
48	O=C(CNS(=O)(=O)c1ccc(Br)cc1)N1CCN(c2ccc(F)cc2)CC1	12

(continued)
entry	Compound	Biofilm kill mix
49	Nc1nc(NCc2ccco2)nn1-c1ccccc1	7
50	CSc1ncccc1C(=O)OCC(=O)Nc1ccc2c(c1)OCO2	5
51	COc1cccc(OCCNc2cc(N3CCOCC3)ccc2[N+](=O)[O-])c1	13
52	Cc1ccc(C)c(C(=O)COC(=O)c2cc(Cl)nc3ccccc23)c1	6
53	CCn1c(O)c(C=Nc2ccccc2)sc1=S	21
54	CCN(c1ccc(N=Cc2c(O)n(Cc3ccc(OC)cc3)c(=O)c3ccccc23)cc1)C(C)C	16
55	COc1ccc(C(=O)Cn2c(=N)n(C)c3ccccc32)cc1	15
56	O=c1oc2c(-c3cccc(F)c3)cc(O)cc2s1	10
57	Cc1ccn2cc(-c3cc4ccccc4oc3=O)nc2c1	19
58	Clc1ccc(SCCOCCN2CCc3ccccc3C2)cc1	9
59	CCOCCCn1cc(C(=O)c2cc(Br)ccc2O)cc(C#N)c1=O	12
60	CC(C)(C)c1ncc(S(=O)(=O)c2ccc(C(F)(F)F)cn2)c(N)n1	12

The list goes on.
entry	Compound	Biofilm kill mix
61	CC1(C(=O)Nc2ccccc2)Cc2ccccc2C(=O)O1 (configuration not stated)	20
62	Nc1c(S(=O)(=O)c2ccccc2)csc1C(=O)O	13
63	Cc1ccc(N2C(=O)c3cccc4c([N+](=O)[O-])ccc(c34)C2=O)c2cccnc12	18
64	COc1cccc(CNS(=O)(=O)/C=C/c2ccc(OC)c(OC)c2)c1	1
65	O=C(N/N=C/c1ccccn1)c1sc2ccccc2c1Cl	1
66	CSc1ccc(/C=N/N2CCN(Cc3ccc(Cl)cc3)CC2)cc1	11
67	CCCc1nc2ccc(NC(=O)NCCC(=O)OCC)cc2c(=O)n1Cc1ccc(Cl)cc1	-2
68	COc1cccc(C(=O)NCC(=O)OCC(=O)Nc2ncc(Cl)cc2Cl)c1	15
69	Cc1cc(C)c2oc(C(=O)N(Cc3cccs3)C3CCS(=O)(=O)C3)cc(=O)c2c1 (configuration not stated)	13
70	CC(=O)Nc1ccc(C(=O)N/N=C/c2ccccc2OCc2ccccc2)cc1	17
71	CCOC(=O)c1c(NC2OC(=O)c3c2ccc(OC)c3OC)sc(C(=O)OC(C)(C)C)c1C (configuration not stated)	13
72	CCOc1ccc(/C=N/NC(=S)NC2CC3C=CC2C3)cc1 (configuration not stated)	16

(further entries)
entry	Compound	Biofilm kill mix
73	CC(C)NC(=O)/C=C/C(=O)O	19
74	Cc1cc(C)c(S(=O)(=O)c2ccc(Cl)cc2)c(Cl)n1	7
75	CCC(CC)c1nnc(NC(=O)c2ccc(S(=O)(=O)N3CCc4ccccc4C3)cc2)s1	-2
76	O=C(Nc1ccccc1C(=O)N1CCOCC1)c1ccc(CSc2ccccc2)cc1	-1
77	Oc1ccc(/C(Cc2ccc3ccccc3n2)=N\Nc2ccccc2)c(O)c1	8
78	COc1cc(SC)ccc1C(=O)OCC(=O)NC1CCCCC1	14
79	O=C(CSc1nc(O)c(Cc2ccccc2)c(=O)[nH]1)Nc1nc2c(s1)CCCC2	18
80	O=C(CN1C2CCCC1CC(NC(=O)c1ccccc1)C2)Nc1nccs1 (configuration not stated)	5
81	CC(=O)NNC1=Nc2ccccc2N(C)C(C)C1 (configuration not stated)	8
82	Cc1ccc(NC(=O)Cn2ccsc2=N)c([N+](=O)[O-])c1	8
83	COc1ccccc1N/C=C/c1onc(C)c1[N+](=O)[O-]	9
84	CCOC(=O)N1CCN(C(=S)Nc2ccccc2C)CC1	19

New compounds follow.
entry	Compound	Biofilm kill mix
85	CC(C)n1cnc2c(N(C)c3ccccc3)nc(N(CCN(C)C)Cc3ccccc3)nc21	20
86	CCCC(CCC)=NNC(=O)c1ccccc1F	12
87	O=C(NC1CCN(C(=O)c2cccs2)CC1)c1ccccc1	17
88	CC(C)N=C1NN=C(c2cccs2)CS1	8
89	CN1CCN(c2ccc(NC(=O)c3ccc(-c4ccc(Br)cc4)o3)cc2)CC1	5
90	CC1=CC(C)(C)NC(=S)N1c1cccc2cc(S(=O)(=O)O)ccc12	18
91	O=C(NCC1CCCO1)c1nnc(Cc2ccc(F)cc2)o1 (configuration not stated)	3
92	O=S(=O)(NCc1cn2ccccc2n1)c1ccccc1F	19
93	COc1ccc(OCCC(=O)OCC(=O)Nc2cccc(S(=O)(=O)N3CCOCC3)c2)cc1	3
94	CNC(=O)Nc1ccc2nc(C)oc2c1	24
95	CC1CCN(c2ccc(C(=O)O)cc2NS(=O)(=O)c2ccc(Br)cc2)CC1	11
96	Cc1[nH]n(-c2ccccc2)c(=O)c1/C=C1/C=c2ccccc2=N1	21

Additional records follow:
entry	Compound	Biofilm kill mix
97	N#Cc1ccc(C23CC4(C2)[C@H](CN(CC2CCCCC2)[C@@H]4c2ccccc2)C3c2ccc(C(F)(F)F)cc2)cc1 (some centres not stated)	12
98	Cc1nn(CCCC(=O)Nc2cccnc2)c(C)c1[N+](=O)[O-]	10
99	CCC(C(=O)NC(C)(C)C)N(Cc1ccco1)C(=O)Cn1nnc(-c2ccc(F)cc2)n1 (configuration not stated)	16
100	O=C(NC1CCCC1)C(c1ccccc1)N(Cc1ccc2c(c1)OCO2)C(=O)Cc1cccs1 (configuration not stated)	15
101	NC(=O)CC(NSc1ccccc1[N+](=O)[O-])C(=O)O (configuration not stated)	20
102	CN(C)c1ccc(C(=S)N2CCN(C(=S)Nc3ccc(Cl)cc3)CC2)cc1	0
103	CCC(CC)C(=O)c1c[nH]c(C(=O)O)c1	9
104	COCCCNC(=O)CSc1nc2sc(C(=O)OC)c(C)c2c(=O)n1N	9
105	Cc1nnc(SCCn2c(N3CCCCC3)nc3c2c(=O)[nH]c(=O)n3C)s1	8
106	CCOC(=O)C1(Cc2cccc(OC)c2)CCN(C/C=C/c2ccccc2)CC1	25
107	N#Cc1cccc(Oc2ccc(-c3cnc4ccccc4n3)cc2)c1C#N	4
108	Cc1ccccc1CC1(CO)CCCN(C(=O)c2ccccc2Cl)C1 (configuration not stated)	20

The list goes on.
entry	Compound	Biofilm kill mix
109	O=C(NCc1ccc2c(c1)OCO2)c1nnc(Cc2ccc(Cl)cc2)o1	13
110	CCCCn1c(SCC(=O)N2c3ccccc3CCc3ccccc32)nc2c1c(=O)n(C)c(=O)n2C	1
111	CC1(C)S[C@@H]2[C@H](NC(=O)C(C(=O)O)c3ccccc3)C(=O)N2[C@H]1C(=O)O (some centres not stated)	4
112	COCCOCCn1c(/C=C/c2ccccc2)nc2ccccc21	12
113	CCC1CN(C(=O)Nc2ccc(C)cc2)c2cc(C)ccc2O1 (configuration not stated)	1
114	COC(=O)C1CCCN1C(=O)COc1ccc(Br)cc1Cl (configuration not stated)	20
115	CCOC(=O)/C=C/C(=O)OCC(=O)NC(c1ccccc1)c1ccccc1	10
116	COc1cccc(-c2csc(N3CCN(CC(=O)NNC(=O)c4ccco4)CC3)n2)c1	9
117	COC(=O)C1=C(C(=O)OC)[C@@H]2N(C)c3ccccc3[C@@]23C[C@@H](C(=O)OC)N(C(=O)c2cccs2)C3=N1	9
118	CC(C)(C)OC(=O)N1CCN(C(=O)Nc2ccc3c(c2)OCCO3)CC1	14
119	CC1=C(C(N)=O)S(=O)(=O)c2ccccc21	20
120	COC(=O)[C@@H]1[C@@H](C#N)C2(c3ccccc3-c3ccccc32)N(c2ccc(Cl)cc2)N1C#N	10

Following part.
entry	Compound	Biofilm kill mix
121	CCC(=O)N1N=C(c2ccc(C)o2)CC1c1ccc(N(C)C)cc1 (configuration not stated)	7
122	CC1(C)CC(=O)C=C(Nc2ccccc2)C1	22
123	COC(=O)C1=C(C)OC(N)=C(C#N)C1c1c(C)nn(C)c1C (configuration not stated)	18
124	C=CCN=Cc1sc2ccc(OCC)cc2c1O	10
125	Cc1ccc(NC(=O)CSc2nnc(NC(=O)c3ccco3)s2)cc1	18
126	Cc1cc(NC(=O)CN2C(=O)[C@@H]3[C@H](C2=O)[C@@H]2C[C@H]3C(Br)C2Br)no1 (some centres not stated)	10
127	CC(C)COc1cccc(C(=O)NC(=S)NCc2cccnc2)c1	16
128	CCN1CCN(c2oc(-c3ccc([N+](=O)[O-])cc3)nc2C#N)CC1	19
129	CC(c1ccc(F)cc1)n1cc(C(=O)NCCN(C)C)nn1 (configuration not stated)	-2
130	CN(C)NC(=O)c1csnc1-c1c(Cl)cccc1Cl	24
131	CC(=O)Nc1ccc(S(=O)(=O)Nc2nnc(CC(C)(C)C)s2)cc1	19

From PubChem
